Screens: PubChem BioAssay, National Center for Advancing Translational Sciences (NCATS)
CtBP-E1A inh: blocks the CtBP interaction with E1A | activity change, % (concentration not given with the values) | AID 651724 | AlphaScreen GST-E1A/His-CtBP binding, 1536-well; stronger effect = lower value; control for the full effect not named in the record | 340,000 tested, 0.49% active; in the data active means activity change below about -65%; inconclusive means about -30% to -65%; inactive means above about -30%; also: % is scaled to controls: 0 for no effect and ±100 for the full control effect
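AlphaScreen with 125 nM GST-E1A and 125 nM His-CtBP (5X stocks) in Tris pH 8.0, 300 mM NaCl, BSA, Tween 20, TCEP. Compounds preincubated 2 h at 37 deg C, then glutathione donor/nickel acceptor beads added for 1 h at 37 deg C in dark.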
D2 PAM: positive allosteric modulators of human D2 dopamine receptor. P14416. potentiation, % (concentration not given with the values). 360,000 tested, 0.23% active. DiscoveRx D2 beta-arrestin cells, luminescence, 90 min; 100% = 57 uM dopamine signal; active = potentiation of 50% or more; inconclusive = 30% to 50%; inactive = 30% or less;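 also: compound concentration not given in the record; tested on top of an EC20 dose of dopamine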
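PathHunter beta-arrestin assay in DiscoveRx D2 cells. Compounds were added with an EC20 of dopamine (50 nM final) for 90 min at 37 deg C. Luminescence was read 1 h after detection reagent, with 57 uM dopamine as the EC100 control.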
Sfp inh: inhibitors of Bacillus subtilis Sfp phosphopantetheinyl transferase. Q9F4F7. Biochemical Sfp PPTase activity, qHTS. Potency, µM, for the others: max response, negative = inhibition, actives largely listed as inhibitors. 310,000 tested, 3.5% active. AID 1490; active = well fitted inhibition curve with a large enough effect; inconclusive = small, poorly fitted or top-dose-only effect, or another doubt; inactive = no such curve, though single readings can be large or run the other way;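 also: the enzyme is Sfp with the accession as filed and its product quenches rhodamine fluorescence; potency is read from the fitted curve at half-maximal effect; 0% = enzyme reaction without inhibitor and -100% = no enzyme wells; top concentration of the series not given in the record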
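Step 1, compound plus 15 nM Sfp-PPTase, 15 min, room temperature. Step 2, add rhodamine-CoA (5 uM) and BHQ-2-YbbR (12.5 uM). Step 3, read 525/598 nm fluorescence at 0 and 30 min.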
PINK1 expr mod: PINK1 expression modulation; PINK1 immunofluorescence, high-content cytometry, 24 h; Potency, µM (top dose mostly 76.6 µM), without a hit: top-dose activation (PINK1 increase), actives largely listed as activators; 410,000 tested, 0.2% active; AID 624263; active = well fitted activation curve with a large enough effect; inconclusive = small, poorly fitted or top-dose-only effect; inactive = flat fitted curve, though single readings scatter; cell line not stated here;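 also: potency is read from the fitted curve at half-maximal effect; % of control where 0% means no effect; nearly all actives have a fitted effect of over 65% in size; a mitochondrial uncoupler was the plate control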
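Fluorescence from anti-PINK1 antibody, together with nuclear and cell stains, was scanned on a laser-scanning cytometer. Before staining, stable-line cells were incubated 24 hours with compounds at 5 concentrations; primary antibody 12 h at 10 degrees C.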
TRPV1 PAM: potentiators of human vanilloid receptor 1 (TRPV1); TRPV1-expressing cells, Fluo-8 calcium influx, capsaicin EC20 potentiation; host cell line not named in the record; control for the full effect not named in the record; 320,000 tested, 0.02% active; Q8NER1; potentiation, % at 8.33 µM; active means potentiation above 80%; inconclusive means 30% to 80%; inactive means below 30%; also: 0% is about no effect
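Cells expressing TRPV1 were dye-loaded with Fluo-8 and read kinetically: 10 s baseline, 3 min after compound (agonist portion), then 2 min after EC20 capsaicin (allosteric enhancer portion). Calcium-bound dye fluorescence at 480/520 nm.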
Six1-Eya2 inh: inhibitors of human Six1/Eya2 interaction; 360,000 tested, 0.56% active; Q15475+O00167; activity change, % (test concentration not listed); AlphaScreen GST-Six1/His-Eya2 binding, biochemical; stronger effect = lower value; control for the full effect not named in the record; AID 651725; in the data active = activity change below about -65%; inconclusive = about -30% to -65%; inactive = above about -30%; also: % is scaled to controls: 0 for no effect and ±100 for the full control effect; compound concentration not given in the record
Target sequence (O00167 whole entry, looked up): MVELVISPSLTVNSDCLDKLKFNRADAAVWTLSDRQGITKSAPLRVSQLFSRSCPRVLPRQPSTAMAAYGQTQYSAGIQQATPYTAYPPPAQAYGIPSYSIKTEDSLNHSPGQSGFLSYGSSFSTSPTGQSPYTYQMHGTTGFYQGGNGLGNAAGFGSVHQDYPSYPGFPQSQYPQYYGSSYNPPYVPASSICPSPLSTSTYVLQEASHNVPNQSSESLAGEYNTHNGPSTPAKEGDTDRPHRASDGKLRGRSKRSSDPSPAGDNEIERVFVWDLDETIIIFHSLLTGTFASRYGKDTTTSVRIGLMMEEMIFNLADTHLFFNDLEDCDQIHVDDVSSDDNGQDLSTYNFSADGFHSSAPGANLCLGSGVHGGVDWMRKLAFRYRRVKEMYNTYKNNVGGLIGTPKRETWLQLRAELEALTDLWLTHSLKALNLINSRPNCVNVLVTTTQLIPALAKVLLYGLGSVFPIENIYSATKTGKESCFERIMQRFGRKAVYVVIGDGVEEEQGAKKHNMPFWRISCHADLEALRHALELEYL
Target sequence (Q15475 whole entry, looked up): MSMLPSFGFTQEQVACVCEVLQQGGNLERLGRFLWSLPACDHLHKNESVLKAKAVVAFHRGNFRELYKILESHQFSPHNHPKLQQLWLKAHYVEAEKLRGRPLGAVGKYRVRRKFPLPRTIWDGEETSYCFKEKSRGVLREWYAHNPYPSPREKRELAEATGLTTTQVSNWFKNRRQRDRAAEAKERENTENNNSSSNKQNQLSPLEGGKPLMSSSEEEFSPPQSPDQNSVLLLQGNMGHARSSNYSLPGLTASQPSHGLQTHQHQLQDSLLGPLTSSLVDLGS
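GST-Six1 + His-Eya2 (5X stock: 250/500 nM); Tris pH 8.0, 300 mM NaCl, 0.05% BSA, 0.02% Tween 20; GSH donor/Ni acceptor beads; 1 h 37 °C dark; AlphaScreen readout.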
D2 ag: agonists of human D2 dopamine receptor (beta-arrestin) | DiscoveRx PathHunter D2 beta-arrestin, luminescence, 90 min; 100% = 57 uM dopamine signal | P14416 | 360,000 tested, 0.084% active | activation, % (concentration not given with the values); in the data active = activation above about 40%; inconclusive = about 15% to 40%; inactive = below about 15%; also: compound concentration not given in the record; the text of the record calls up to 30% inactive
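DiscoveRx PathHunter D2 beta-arrestin cells (2,100/well) attached overnight, then compound-stimulated 90 min at 37 C in HBSS/10 mM HEPES/0.1% Tween-20 buffer; beta-galactosidase complementation read by luminescence after 1 h at ambient temperature. Dopamine 57 uM final (EC100) as control.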
Active calls of the source: *; ? = inconclusive; . = not tested or not shown; [ ] = remark or other dose.

Results follow in this order: CtBP-E1A inh | D2 PAM | Sfp inh | PINK1 expr mod | TRPV1 PAM | Six1-Eya2 inh | D2 ag
1: Cc1[nH]c2ccccc2c1C(=O)C(=O)Nc1ccc2c(c1)OCCO2
 : -13.4 | -3.7 | 10.8% | 0.7% | 7.5 | -5.2 | -2.9
2: O=C1c2ccccc2N2C(=O)c3ccccc3[C@H]2N1c1ccccc1
 : -15.9 | -4.3 | 16.3% | 2.6% | -12.8 | -21.3 | -0.7
3: O=C1C=CN(C2OC(CO)C(O)C2O)C(=O)C1 (stereo not given)
 : 3.9 | -2.4 | . | 0.0% | . | -0.1 | 0.7
4: CSc1cccc(NC(=O)C2CCN(S(=O)(=O)c3cnc[nH]3)CC2)c1
 : 1.2 | -11.0 | 6.7% | 0.1% | -13.4 | -4.1 | -0.9
5: O=C(Nc1cccc(-c2nc3ncccc3o2)c1)c1cc2ccccc2o1
 : ? | 5.6 | -4.1% | -0.8% | 18.0 | -26.6 | -2.2
6: O=C(CN(C(=O)c1csnn1)c1ccccc1F)NC1CCCCC1
 : 12.7 | -4.7 | 6.8% | -1.6% | 3.0 | -1.1 | 1.2
7: O=C(Nc1ccc(Cl)cc1)C1Cc2c(-c3ccccc3Oc3ccccc3)ccnc2O1 (stereo not given)
 : 15.1 | -0.2 | . | 0.7% | . | 3.7 | 5.2
8: O=C(O)CC(NC(=O)C12CC3CC(CC(C3)C1)C2)c1cccc([N+](=O)[O-])c1 (stereo not given)
 : -3.1 | -5.1 | 6.1% | -0.9% | -4.1 | 0.8 | -1.4
9: O=S(=O)(/N=C(/Nc1cccnc1Cl)c1ccccc1)c1ccccc1
 : 0.7 | -2.4 | . | 1.3% | . | -1.4 | 6.7
10: CC1Cc2ccccc2N1C(=O)Cn1c(=O)oc2cc(S(=O)(=O)NC3CCCC3)ccc21 (stereo not given)
 : -0.5 | -4.9 | 7.9% | -1.5% | ? | 5.8 | 8.7
11: CCOc1cc(S(=O)(=O)N2CCN(c3ccc(F)cc3)CC2)c(OCC)cc1-n1cnnn1
 : -3.7 | -1.8 | -3.1% | -1.4%[38.3 µM] | -9.2 | 0.5 | -1.4
12: COc1ccc(F)c(CN2CCCC(CNS(=O)(=O)c3cccc4cccnc34)C2)c1 (stereo not given)
 : -15.1 | -25.4 | 9.0% | -0.7% | 2.2 | -15.1 | -2.9
13: CC(=O)c1ccccc1OCCOc1ccccc1C(C)=O
 : 3.8 | 0.2 | 16.2% | 3.7% | 4.3 | 8.6 | -6.3
14: COC(=O)C=CSC(=S)C1CCCC1=N (stereo not given)
 : -4.9 | -11.0 | . | 0.3% | . | -10.0 | -8.5
15: CC(=O)N1CC(C)Sc2ccc(S(=O)(=O)N3CCCCC3)cc21 (stereo not given)
 : -5.8 | -11.8 | 10.2% | -0.7% | -22.6 | 7.3 | -3.4

The final 2 records of the part above lead into the next.
Results follow in this order: CtBP-E1A inh | D2 PAM | Sfp inh | PINK1 expr mod | TRPV1 PAM | Six1-Eya2 inh | D2 ag
14: COC(=O)C=CSC(=S)C1CCCC1=N (stereo not given)
 : -4.9 | -11.0 | . | 0.3% | . | -10.0 | -8.5
15: CC(=O)N1CC(C)Sc2ccc(S(=O)(=O)N3CCCCC3)cc21 (stereo not given)
 : -5.8 | -11.8 | 10.2% | -0.7% | -22.6 | 7.3 | -3.4
16: CC(Sc1nnc(Cn2c(=O)sc3ccccc32)n1C)c1ccccc1 (stereo not given)
 : -10.6 | -3.6 | 17.8% | 2.8% | 8.1 | -23.4 | -0.1
17: O=C(Nc1ccccc1C(=O)NCc1ccccc1)c1ccccc1Br
 : 8.4 | 3.8 | 11.2% | 6.9% | 4.0 | 1.5 | -1.4
18: COC(=O)c1ccc(CNC(=O)c2ccc(OC)c(S(=O)(=O)NC3CC3)c2)cc1
 : 3.7 | -14.4 | . | -0.4% | . | 21.9 | -5.6
19: CCNC(=O)COc1cccc(C(=O)NCc2ccccc2)c1
 : -17.2 | 6.6 | 0.2% | 1.7% | ? | 2.1 | -0.4
20: Cc1ccc(C(C(=O)NC2CCCC2)N(C(=O)Cc2cccs2)c2ccc3c(c2)OCCO3)cc1 (stereo not given)
 : -11.7 | -6.6 | -5.7% | . | -22.1 | -6.9 | -5.3
21: O=C(CN1C(=O)c2cccc3cccc(c23)C1=O)N1CCN(Cc2ccc3c(c2)OCO3)CC1
 : -21.1 | -11.1 | 3.1% | ? | 5.1 | -15.8 | -2.4
22: CCN(C(=O)CCS(=O)(=O)c1ccc(Br)cc1)c1ccc2c(c1)OCO2
 : 0.6 | 2.9 | -3.9% | 0.9% | -19.1 | -0.4 | -4.4
23: COc1ccc(-n2c(SCCC(=O)O)nnc2-c2ccncc2)cc1
 : -1.2 | -10.3 | 14.9% | -0.2% | -1.8 | 8.3 | 2.1
24: CCCN(CC(=O)Nc1ccc(NC(C)=O)cc1)CC(=O)Nc1ccc(F)c(F)c1F
 : 5.6 | -2.8 | 6.9% | 4.5% | 1.5 | 1.7 | 0.9
25: CCOc1ccc(N2C(=O)CC(n3nc(C)cc3C)C2=O)cc1 (stereo not given)
 : 0.1 | -12.1 | 18.5% | 0.5% | -0.4 | -1.8 | -1.1
26: CC1=C(C)CC(C(=O)NCCc2ccccc2)C(C(=O)O)C1 (stereo not given)
 : 3.1 | 13.9 | 14.7% | -2.4% | 1.2 | 4.4 | 4.2
27: O=C(Nc1ccccc1N1CCCC1)c1cc(=O)[nH]c2ccccc12
 : -4.3 | 10.9 | . | 5.4% | 1.6 | -5.3 | -1.8
28: CCc1ccc(S(=O)(=O)N2CCN(C(=O)c3cccnc3)CC2)cc1
 : 0.7 | -0.9 | 8.2% | -0.8% | -2.3 | 2.2 | -4.1
29: COc1cccc(CNCc2ccccc2Br)c1OC
 : 4.0 | -11.4 | 13.3% | 0.8% | -12.1 | -9.9 | 0.9
30: COc1cc(/C=N/Nc2nncn2/N=C/c2ccc(O)c(OC)c2)ccc1O
 : ? | 11.4 | ? | -0.9% | -1.6 | -21.8 | ?
31: C=CCC(NC(C)c1ccccc1)c1ccco1 (stereo not given)
 : -4.0 | -7.8 | ? | -1.0%[38.3 µM] | ? | 1.2 | -2.5
32: COc1ccccc1CN1CC(C(=O)N2CCC(C(=O)c3ccccc3)CC2)CCC1=O (stereo not given)
 : . | -10.1 | 6.1% | -0.7% | 10.4 | 1.8 | -3.3
33: O=C(c1nc2ccccn2c1CNCC1OCCc2ccccc21)N1CCOCC1 (stereo not given)
 : -20.3 | -4.0 | 9.6% | 1.0% | 8.8 | 8.5 | -4.7
34: CC(=O)c1cnn(-c2ccc(Cl)c(Cl)c2Cl)c1C
 : -12.0 | -4.9 | -3.9% | 1.3% | -25.2 | 5.4 | -2.3
35: CCCN(CCC)CCNC(=O)C1CC(=O)N(c2ccc(OC)cc2)C1c1ccc(OC)cc1 (stereo not given)
 : -3.4 | -8.3 | 20.0% | -1.9% | 9.9 | -0.7 | -0.6
36: Brc1ccc(-c2nnc3n2-c2ccccc2CC3)cc1
 : 9.3 | -1.5 | 10.7% | -1.1%[38.3 µM] | 1.5 | -0.2 | -0.6
37: CCCCCn1c(=O)c(C(=O)c2ccccc2)nc2ccccc21
 : -2.2 | 2.5 | 9.1% | -2.2% | -16.6 | -6.1 | 0.1
38: Cc1c(C(=O)NCCC#N)sc(=O)n1Cc1ccccc1F
 : 0.4 | -3.2 | . | 0.7% | . | -2.4 | 0.2
39: O=S(=O)(/N=C(/Nc1cccc2ccccc12)c1ccccc1)c1ccc(Br)cc1
 : -7.4 | -4.8 | 9.7% | -0.5% | -3.3 | -11.1 | -6.5
40: COc1ccccc1N(C(=O)CNC(=O)c1ccco1)C(C(=O)NC1CCCCC1)c1ccncc1 (stereo not given)
 : -4.9 | 1.8 | 6.1% | 1.2% | 1.9 | 0.9 | -1.0
41: COCOc1cccc(CN2CCC(C)(Oc3ccc(SC)cc3)C2)c1 (stereo not given)
 : -22.6 | -12.1 | . | 3.2% | . | -28.9 | -2.1
42: CCOC(=O)CC(NS(=O)(=O)c1ccc(OC)c(OC)c1)c1cccc([N+](=O)[O-])c1 (stereo not given)
 : -1.8 | -3.8 | -23.4% | 1.9% | -4.0 | 7.3 | -1.0
43: CC(C)c1ccc(C(=O)NCCCN2CCN(CCCNC(=O)c3ccc(C(C)C)cc3)CC2)cc1
 : 2.0 | -14.7 | -3.2% | -2.4% | -1.5 | -3.1 | -0.8
44: O=C1CCN=C(Nc2ccc(F)cc2)N1Cc1ccccc1
 : 4.9 | -9.4 | -18.6% | 3.2% | -12.1 | 5.1 | -1.3
45: O=[N+]([O-])c1ccc(CNCc2cc(Cl)ccc2O)cc1
 : -0.7 | -58.7 | . | 1.4% | ? | -9.1 | 1.7

Copied from the list.
In D2 ag, compound 28 reads -4.1
In PINK1 expr mod, compound 31 reads -1.0%[38.3 µM]
In PINK1 expr mod, compound 16 reads 2.8%

The results go on.
Results follow in this order: CtBP-E1A inh | D2 PAM | Sfp inh | PINK1 expr mod | TRPV1 PAM | Six1-Eya2 inh | D2 ag
46: CC(C(=O)NC1CC1)c1ncc(C(F)(F)F)cc1Cl (stereo not given)
 : 0.0 | -4.3 | 17.2% | -0.7% | 6.6 | 1.8 | 1.6
47: COc1ccc(CN2C(=O)CCC2(C)c2nnnn2-c2c(C)cccc2C)cc1OC (stereo not given)
 : 5.4 | . | . | -0.2% | . | 2.1 | .
48: NC(=O)c1ccsc1NC(=O)COC(=O)[C@@H]1CCCN1C(=O)c1cccs1
 : -1.7 | -5.3 | . | -1.1% | . | 0.9 | 2.6
49: CC(c1ccon1)N(C)C(=O)CCc1nnc(C2(c3ccc(Cl)cc3)CCC2)o1 (stereo not given)
 : -3.8 | -0.9 | 13.5% | -0.5% | 5.3 | 2.6 | -5.3
50: Cc1cccc(OCC(=O)Nc2ccc(N3CCCC3)cc2)c1C
 : 5.3 | -3.0 | ? | . | 13.2 | -16.7 | -2.3
51: O=c1cc(O)c(-c2ccc(Cl)c(Cl)c2)c(Cl)[nH]1
 : 0.0 | -1.4 | 3.0% | -2.3% | 0.2 | -4.4 | -0.2
52: CCn1c(-c2ccsc2)nc2c1c(=O)[nH]c(=O)n2Cc1ccccc1
 : -9.1 | 5.3 | -7.4% | 0.5% | -7.7 | 1.4 | -2.6
53: COc1cccc(NC(=O)CN(C)C(C)C(=O)Nc2ccc(S(=O)(=O)N3CCCC3)cc2)c1 (stereo not given)
 : -1.8 | 7.9 | -13.3% | -0.1% | -15.1 | -3.8 | -20.7
